# High-throughput results from PubChem.
# gsp antag: antagonists of gsp mutant (McCune-Albright syndrome); gsp-mutant cells, cAMP HTRF, 30 min; control for the full effect not named in the record; Potency, µM (top dose mostly 76.9 µM), for inactives: at the top dose activity change, negative = inhibition, most hits filed as inhibitors; hit rate 0.4% among 340,000; active = falling curve of any shape with a large fitted effect; inconclusive = falling curve, mostly with a smaller effect; inactive = flat or rising curve; cell line not stated here;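 also: intracellular cAMP measured with PDE inhibitor Ro 20-1724 present during compound exposure; potency is read from the fitted curve at half-maximal effect; % is scaled to controls: 0 for no effect and ±100 for the full control effect; nearly all actives have a fitted effect of over 65% in size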
#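 Cells, 2000/well, grown 16–24 h in DMEM 10% FBS with 0.5 mg/ml G418, then compounds plus […] (300 uM addition stock), 30 min at 37C. cAMP read by HTRF (cAMP-d2 and anti-cAMP antibody-K in lysis buffer) after 30 min RT.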
# gsp ag: gsp mutant agonism; gsp mutant cells, cAMP HTRF, 30 min; control for the full effect not named in the record; Potency, µM (titrated, usually from 76.9 µM), without a hit: at the highest dose activation (cAMP increase), actives largely listed as activators; hit rate 0.13% among 340,000; AID 624287; active = well fitted activation curve with a large enough effect; inconclusive = small, poorly fitted or top-dose-only effect, or another doubt; inactive = no such curve, though single readings can be large or run the other way; cell line not stated here;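 also: phosphodiesterase inhibitor Ro 20-1724 added with compounds to block cAMP breakdown; potency is read from the fitted curve at half-maximal effect; nearly all actives have a fitted effect of over 60% in size; about a fifth of the inactives were tested at one dose only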
#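 Cells stably selected in G418 were plated at 2000/well, grown 16-24 hr, then given compounds in DMSO with the PDE inhibitor […] (300 uM solution added) for 30 min at 37C; cAMP was read by HTRF.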
# D2 ag: human D2 receptor agonism in beta-arrestin assay. P14416. DiscoveRx PathHunter D2 beta-arrestin, luminescence, 90 min; 100% = 57 uM dopamine signal. activation, % (test concentration not listed). hit rate 0.084% among 360,000. AID 624465; in the data active = activation above about 40%; inconclusive = about 15% to 40%; inactive = below about 15%; also: compound concentration not given in the record; the text of the record calls up to 30% inactive
#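 Agonist mode: compounds alone added to overnight-plated D2 PathHunter cells for 90 min at 37 C, with 57 uM final dopamine (EC100) defining full response. Beta-arrestin recruitment detected by chemiluminescent reagent, read after 1 h at ambient temperature.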
# D2 potentiator: positive allosteric modulators of human D2 dopamine receptor; P14416; hit rate 0.23% among 360,000; DiscoveRx D2 beta-arrestin cells, luminescence, 90 min; 100% = 57 uM dopamine signal; potentiation, % (no concentration beside the values); active = potentiation of 50% or more; inconclusive = 30% to 50%; inactive = 30% or less;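 also: compound concentration not given in the record; tested on top of an EC20 dose of dopamine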
#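 PathHunter D2 cells, attached overnight at 37 deg C, received compound in DMSO plus dopamine at EC20 (50 nM final) for 90 min at 37 deg C. Beta-arrestin recruitment was read as luminescence after 1 h with detection reagent at ambient temperature.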
# Six1-Eya2 blk: blocks human Six1 binding to Eya2; hit rate 0.56% among 360,000; AlphaScreen GST-Six1/His-Eya2 binding, biochemical; active compounds read low; control for the full effect not named in the record; AID 651725; Q15475+O00167; activity change, % (no concentration beside the values); in the data active = activity change below about -65%; inconclusive = about -30% to -65%; inactive = above about -30%; also: % is scaled to controls: 0 for no effect and ±100 for the full control effect
# Target sequence (O00167 whole entry, looked up): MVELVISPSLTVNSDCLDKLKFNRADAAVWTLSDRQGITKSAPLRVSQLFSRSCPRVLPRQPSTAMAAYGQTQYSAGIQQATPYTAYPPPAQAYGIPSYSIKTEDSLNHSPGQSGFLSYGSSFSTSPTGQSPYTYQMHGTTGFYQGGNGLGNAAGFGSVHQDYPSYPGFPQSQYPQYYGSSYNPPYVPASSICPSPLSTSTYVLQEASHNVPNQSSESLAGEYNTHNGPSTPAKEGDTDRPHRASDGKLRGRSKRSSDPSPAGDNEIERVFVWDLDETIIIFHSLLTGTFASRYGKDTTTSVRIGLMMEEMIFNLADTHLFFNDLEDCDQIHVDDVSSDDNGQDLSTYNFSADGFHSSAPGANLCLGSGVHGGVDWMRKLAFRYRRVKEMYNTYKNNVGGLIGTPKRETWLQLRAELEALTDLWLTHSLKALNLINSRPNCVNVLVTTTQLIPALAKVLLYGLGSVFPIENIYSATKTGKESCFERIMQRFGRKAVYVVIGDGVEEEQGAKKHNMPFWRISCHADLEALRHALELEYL
# Target sequence (Q15475 whole entry, looked up): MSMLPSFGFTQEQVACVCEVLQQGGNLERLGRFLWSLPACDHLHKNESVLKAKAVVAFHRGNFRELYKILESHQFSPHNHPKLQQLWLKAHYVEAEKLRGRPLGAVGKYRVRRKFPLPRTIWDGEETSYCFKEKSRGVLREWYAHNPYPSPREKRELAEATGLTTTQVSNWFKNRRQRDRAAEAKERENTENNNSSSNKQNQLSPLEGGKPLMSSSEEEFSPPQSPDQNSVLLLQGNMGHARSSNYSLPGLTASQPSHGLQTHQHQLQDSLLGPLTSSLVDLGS
#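 AlphaScreen luminescence read after one hour at 37 °C in darkness. Pin-transferred compounds met GST-Six1 and His-Eya2 protein (5X stock 250 nM/500 nM) plus glutathione donor and Ni-chelate acceptor beads (5X, 50 ug/mL).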
# CtBP-E1A blk: CtBP/E1A binding inhibition; activity change, % (no concentration beside the values); AID 651724; AlphaScreen GST-E1A/His-CtBP binding, 1536-well; active compounds read low; control for the full effect not named in the record; hit rate 0.49% among 340,000; in the data active means activity change below about -65%; inconclusive means about -30% to -65%; inactive means above about -30%; also: % is scaled to controls: 0 for no effect and ±100 for the full control effect
#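 AlphaScreen with 125 nM GST-E1A and 125 nM His-CtBP (5X stocks) in Tris pH 8.0, 300 mM NaCl, BSA, Tween 20, TCEP. Compounds preincubated 2 h at 37 deg C, then glutathione donor/nickel acceptor beads added for 1 h at 37 deg C in dark.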
# Active calls of the source: *; u = inconclusive; x = not tested or not shown; [ ] = dose if it differs, or a comment.
SMILES | gsp antag | gsp ag | D2 ag | D2 potentiator | Six1-Eya2 blk | CtBP-E1A blk
O=S(=O)(c1ccccc1F)N1CCCc2ccccc21 | -4.9% | 19.8% | 2.6 | 4.1 | 19.5 | 21.5
CC1(CCc2ccccc2)NC(=O)N(CC(=O)N2CCCCCC2)C1=O (configuration not stated) | -1.3% | 8.8%[15.4 µM] | -3.2 | 1.5 | 1.3 | 2.4
COc1cccc(-c2cnc3c(NC=O)cc(-c4cccc(C(=O)N(C)C)c4)cn23)c1 | x | x | 8.3 | -0.9 | -28.8 | u
COc1cccc(OC)c1OC(=O)C1CC(=O)N(c2ccc3c(c2)OCCO3)C1 (configuration not stated) | -7.4% | 3.6% | -1.1 | 2.5 | -11.1 | 3.3
COc1ccc(N2CCN(C(=O)CN(c3ccccc3)S(=O)(=O)c3ccc(OC)cc3)CC2)cc1 | -17.3% | -17.2% | -1.2 | 0.1 | 1.3 | 1.4
Cc1ccc(C(NC(=O)N2CCN(C)CC2)C(Cl)Cl)cc1F (configuration not stated) | 8.8% | -12.8%[15.4 µM] | -1.7 | -9.9 | 3.5 | 0.2
COc1ccc(N)c2c1OCCC2=O | -6.3% | 8.1% | -4.6 | -11.1 | -0.8 | 5.6
CCOC(=O)c1cnc(SCC(=O)c2ccc(C)cc2)nc1N | 4.0% | 18.9% | -2.3 | -1.0 | 6.4 | 0.1
CCCCOc1cccc(-c2cc(C(=O)NNC(=S)NCC)c3ccccc3n2)c1 | u | 1.3% | -7.2 | -17.3 | -7.0 | -9.5
COc1ccc(N(CC(=O)NCc2ccc(Cl)cc2)S(=O)(=O)c2ccccc2[N+](=O)[O-])c(OC)c1 | u | u | 7.2 | -1.5 | -11.3 | -5.2
O=C(Nc1c2c(nn1-c1ccc(F)cc1)CS(=O)C2)C12CC3CC(CC(C3)C1)C2 (configuration not stated) | 3.9% | 6.2%[15.4 µM] | -4.7 | -4.5 | 3.9 | -2.2
Cc1ccc(-n2c(SCC(=O)N/N=C/c3ccccc3OCC(=O)O)nc3ccccc3c2=O)cc1 | u | -14.6%[15.4 µM] | 0.2 | 7.0 | -8.4 | -4.2
COc1ccc(C2(CCN)CC(C)N(C)CC2C)cc1 (configuration not stated) | 9.8% | 0.6% | 0.4 | -13.9 | 9.2 | 10.4
COC(=O)c1ccc(NC(=O)CC2C(=O)N(c3ccc(C)cc3)C(=O)N2CC(C)C)cc1 (configuration not stated) | -20.8% | -16.0% | -0.8 | -6.7 | -3.5 | -9.6
O=C(Nc1ccc(Oc2cccnc2)cc1)c1ccccc1Cl | 3.0% | -2.7% | -0.4 | -5.0 | 9.0 | 2.2
S=c1[nH]nc(Nc2ccc(Cl)cc2)s1 | -16.5% | 0.3% | 0.4 | -3.7 | -3.5 | x
CC1=C([N+](=O)[O-])C(c2ccccc2)NC(=O)N1 (configuration not stated) | 10.3% | 1.0%[15.4 µM] | -4.3 | -4.9 | 0.4 | 5.1
O=C(c1cc(-c2ccccc2)n[nH]1)N1CCN(S(=O)(=O)c2ccccc2)CC1 | -12.2% | u | -0.7 | 2.9 | -0.8 | 1.7
COc1ccc(CCNC(=O)c2ccc(CS(=O)(=O)c3ccc(Br)cc3)o2)cc1OC | -22.5% | 9.7% | 0.1 | -2.0 | -0.8 | -14.7
CNC(C)C#Cc1ccc2c(=O)c3ccccc3oc2c1 (configuration not stated) | -10.8% | x | -2.1 | -37.3 | -1.4 | 2.9
CC1CN(C(=O)c2cc(S(=O)(=O)N3CCCC3)ccc2Cl)CC(C)O1 (configuration not stated) | -2.2% | 15.9% | 0.3 | 0.7 | 0.3 | 4.8
O=Cc1ccc(-c2ccc(F)cc2)o1 | -7.9% | -99.6%[inhibitor] | -1.1 | -10.0 | 1.5 | -2.0
O=C(c1ccc(Cl)c(Cl)c1)N1CCC(=O)N(C(COCc2cccc(C(F)(F)F)c2)Cc2ccccc2)CC1 (configuration not stated) | 0.8% | -23.3% | -5.3 | -1.8 | 1.6 | -6.1
CCC1CCCCN1CCNC(=O)CNS(=O)(=O)c1ccc2nc(C)sc2c1 (configuration not stated) | 2.1% | -17.3% | -0.9 | -9.8 | 2.7 | -11.4
COc1cccc(NC(=O)CNC(C)CCC(C)C)c1 (configuration not stated) | 0.3% | 26.7% | -2.3 | -36.6 | 13.1 | 3.2
COc1ccc(C=C2NC(=S)NC2=O)cc1 | -10.4% | 13.2% | -3.1 | -9.5 | 6.5 | 1.1
CN(C)S(=O)(=O)c1ccc(C(=O)OCC(=O)Nc2ccccc2OC(F)F)cc1 | 9.3% | 23.1% | -3.4 | -10.9 | 25.6 | 17.8
CCCN1CCN(CC(=O)Nc2nc3ccccc3s2)CC1 | 5.8% | -45.0%[inhibitor] | 4.0 | -20.9 | -1.0 | 0.0
COc1cc(-c2noc(-c3ccccc3C(=O)NCc3ccco3)n2)cc(OC)c1OC | -3.2% | 9.8% | 1.3 | u | 0.7 | -14.8
O=C(OCc1csc(-c2ccccc2)n1)c1cccs1 | -1.1% | -1.2% | -1.3 | -5.0 | 35.2 | 33.3
Cc1nc2ccc(NC(=O)c3ccc(Cl)c([N+](=O)[O-])c3)cc2s1 | -20.1% | 0.5% | -2.5 | 3.5 | 23.4 | 18.4
N#Cc1c(N)nc2c(c1-c1ccc(F)cc1)CCC2 | -1.3% | 13.9%[15.4 µM] | -0.1 | -7.9 | 0.6 | -0.9
COc1ccccc1OCC(=O)NN=C(Cc1ccccc1)Cc1ccccc1 | 4.2% | -1.3% | -3.1 | -15.5 | 8.5 | -0.2
COCCOC(=O)c1[nH]c2c(c1C)C(=O)CC(c1ccco1)C2 (configuration not stated) | 6.3% | -27.1% | -4.1 | 0.2 | -16.9 | -1.7
Cc1oc2c(c1C(=O)N1CCOCC1)C(=O)c1ccccc1C2=O | 15.1% | -19.9% | u | 15.2 | 0.5 | -3.3
CCC(=O)c1ccc(N2CCN(C(=O)c3ccccc3)CC2)c(F)c1 | -13.3% | -6.9% | -1.4 | 1.6 | 0.6 | x
CCOc1ccnc(OCC)c1Br | 3.0% | -38.4% | 1.3 | 4.9 | -1.0 | 5.5
Cn1ncc2c(NNC(=O)c3ccc(Cl)cc3Cl)ncnc21 | 15.4% | 37.0% | -3.4 | -0.9 | -9.9 | -3.7
COc1cc(NC(=O)c2ccccc2F)ccc1NC(=O)c1cc2ccccc2o1 | 8.3% | 8.6% | -4.3 | -6.3 | 5.0 | 0.1
CC(=O)Nc1cccc(S(N)(=O)=O)c1C | 10.6% | 22.3% | 2.1 | -3.7 | 1.3 | 3.6

# Among those listed so far, these contain four or more nitrogen atoms:
SMILES | gsp antag | gsp ag | D2 ag | D2 potentiator | Six1-Eya2 blk | CtBP-E1A blk
COc1cccc(-c2cnc3c(NC=O)cc(-c4cccc(C(=O)N(C)C)c4)cn23)c1 | x | x | 8.3 | -0.9 | -28.8 | u
CCCCOc1cccc(-c2cc(C(=O)NNC(=S)NCC)c3ccccc3n2)c1 | u | 1.3% | -7.2 | -17.3 | -7.0 | -9.5
Cc1ccc(-n2c(SCC(=O)N/N=C/c3ccccc3OCC(=O)O)nc3ccccc3c2=O)cc1 | u | -14.6%[15.4 µM] | 0.2 | 7.0 | -8.4 | -4.2
O=C(c1cc(-c2ccccc2)n[nH]1)N1CCN(S(=O)(=O)c2ccccc2)CC1 | -12.2% | u | -0.7 | 2.9 | -0.8 | 1.7
CCC1CCCCN1CCNC(=O)CNS(=O)(=O)c1ccc2nc(C)sc2c1 (configuration not stated) | 2.1% | -17.3% | -0.9 | -9.8 | 2.7 | -11.4
CCCN1CCN(CC(=O)Nc2nc3ccccc3s2)CC1 | 5.8% | -45.0%[inhibitor] | 4.0 | -20.9 | -1.0 | 0.0
Cn1ncc2c(NNC(=O)c3ccc(Cl)cc3Cl)ncnc21 | 15.4% | 37.0% | -3.4 | -0.9 | -9.9 | -3.7

# More entries
SMILES,gsp antag,gsp ag,D2 ag,D2 potentiator,Six1-Eya2 blk,CtBP-E1A blk
CSc1ccccc1NC(=S)N/N=C/c1cccn1Cc1cccc(C)c1,3.5%,-5.1%[15.4 µM],-5.5,-9.0,-0.8,-3.3
CCc1ccc(NC(=O)CCNS(=O)(=O)c2cccs2)cc1,19.5%,-0.7%[15.4 µM],0.4,3.8,0.8,-4.5
CC(=O)c1cc(NC(=O)c2ccc(C)cc2)c(=O)oc1/C=C/N(C)C,u,19.3%,-1.9,-39.0,9.5,18.6
O=C(O)C1C2C=CC(C2)C1C(=O)NCCC1=CCCCC1 (configuration not stated),-12.9%,-34.4%,1.0,9.8,8.8,6.8
O=S1(=O)CCOC[C@H](c2ccccc2)N1Cc1ccccc1F,6.5%,11.0%,3.1,-4.9,18.9,-23.7
CCC1=C(Nc2ccccc2)COC1=O,x,-9.7%,-4.6,-15.2,25.0,0.0
Cc1ccc(C)c(NC(=O)Cn2nc([N+](=O)[O-])c(Br)c2C)c1,12.6%,-23.4%,-3.9,-4.5,0.1,-1.0
Cn1c(=O)c(=O)n(C)c2cc(N3CCCC3)c(NS(=O)(=O)c3ccc(F)cc3)cc21,-5.9%,u,-2.9,-0.2,-8.1,-22.0
COc1ccc2[nH]c(=O)c(CN(C(C)=O)c3cccc(C)c3)cc2c1,-4.9%,-6.2%,-4.4,u,7.6,-4.2
COC(=O)C1=C(C)N(C)C(=O)NC1c1c(O)ccc2ccccc12 (configuration not stated),8.4%,-21.5%[15.4 µM],-2.5,-8.8,9.1,9.0
Cc1cc(C)c(C)c(S(=O)(=O)N2CCN(C(=O)c3cc(S(=O)(=O)N4CCOCC4)ccc3F)CC2)c1C,1.3%,-3.0%,-0.2,9.2,-1.8,x
CCCCCCNc1ccc(C(=O)OCC)cc1,x,x,2.2,5.3,11.9,20.6
CSCC[C@H](NC(=O)NCc1cccs1)C(=O)O,-5.4%,-50.4%[inhibitor],0.0,-4.5,6.0,-1.3
CCOC(=O)C1=CCC(c2ccco2)N(S(=O)(=O)c2ccc(C)cc2)C1 (configuration not stated),x,x,-5.0,4.0,-4.8,-2.3
COc1cccc(NC(=O)CSCc2nc3sc(C)c(C)c3c(=O)[nH]2)c1,x,-60.7%[inhibitor],-0.8,-10.8,-0.9,2.2
Cc1ccc(CN2CCCC(C(=O)N3CCCC3)C2)cc1 (configuration not stated),13.8%,-3.7%[15.4 µM],-0.2,-10.0,0.4,5.7
c1ccc(/N=C2\N=C(Nc3ccccn3)c3ccccc32)nc1,-0.7%,-10.1%[15.4 µM],0.0,-4.0,-29.7,-28.2
Cc1nn(C)c(C)c1S(=O)(=O)N(CC(=O)NCCCN1CCC(C)CC1)c1ccc(C(C)C)cc1,18.5%,3.7%,-2.2,-28.5,4.2,0.0
